Compound activity: PubChem BioAssay, several laboratories
Bfl-1 A1 inh: inhibitors of the anti-apoptotic protein A1, read as caspase activation; MEF A1-2A-BIM cells, Caspase-Glo 3/7 luminescence, 3 h; percent of clofoctol response, vehicle zero; hit rate 0.066% among 330,000; caspase activation, % (concentration not given with the values); AID 2462;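 active means over half of replicate activation scores above 10%, or exactly half above 10 with the replicate mean above 10; inconclusive means replicate mean below 10 yet half the replicates above 10; inactive means over half of replicates below 10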;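 further: wells of about 30 µL received 50 nL stock; many hits fall short of the cut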
Beta2AR agonist: human beta-2 adrenergic receptor agonism by FAP. response, % (concentration not given with the values). hit rate 0.43% among 340,000. P07550. Am2.2-beta2AR cells, FAP receptor internalization, flow cytometry; reference of the scale not given here. AID 504454;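 active means response above a set limit, near 3 SD of response in nonfluorescent compounds, cut at about 42% in these data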;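 further: stock transfer was 100 nL into about 11 µL; a reference agonist was the positive control; negative values mostly stem from fluorescent compounds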
Target sequence (P07550 whole entry, looked up): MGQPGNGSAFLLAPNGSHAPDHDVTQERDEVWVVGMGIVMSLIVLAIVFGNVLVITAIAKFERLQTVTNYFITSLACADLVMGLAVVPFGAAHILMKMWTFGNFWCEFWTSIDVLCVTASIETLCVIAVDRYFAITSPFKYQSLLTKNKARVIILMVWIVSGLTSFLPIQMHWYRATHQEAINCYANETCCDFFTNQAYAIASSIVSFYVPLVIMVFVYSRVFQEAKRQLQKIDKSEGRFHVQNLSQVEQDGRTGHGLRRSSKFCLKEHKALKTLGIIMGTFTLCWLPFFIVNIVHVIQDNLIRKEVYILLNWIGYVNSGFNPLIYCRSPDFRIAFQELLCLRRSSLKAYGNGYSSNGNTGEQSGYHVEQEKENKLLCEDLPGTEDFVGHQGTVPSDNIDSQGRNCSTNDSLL
Calb FLC: affects C. albicans growth with fluconazole | C. albicans CaCi-2 (fluconazole-resistant clinical isolate) + fluconazole, Alamar Blue growth, 48 h | growth inhibition, % (concentration not given with the values) | hit rate 0.57% among 300,000 | AID 1979;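 active means most replicates above 75%; inconclusive means exactly half above 75%; inactive means most below 75%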;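 further: all wells also contain fluconazole at 8 µg/ml as a sub-toxic cotreatment; 0% = median of DMSO wells and 100% = median of geldanamycin control wells; wells of about 8 µL received 7.5 nL stock; the first replicate is given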
T cruzi inh: T. cruzi replication inhibition; T. cruzi beta-gal in NIH3T3, luminescence, 90 h; inhibition, % (concentration not given with the values); hit rate 1.4% among 300,000; AID 1885;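 active means mean inhibition across valid replicates above about 55%, limit read from the data; inconclusive means mean below that limit but half or more replicates reach it; inactive means mean below it, under half of replicates reach it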;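 further: signal also drops with host cell toxicity which is not excluded here; 0% = plate median of DMSO wells and 100% = zero luminescence signal; higher percent means less beta-gal luminescence so fewer parasites; stock transfer was 50 nL into about 50 µL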
LANA-H2A inh: blocks KSHV LANA binding to histone H2A/H2B; AID 2629; hit rate 0.6% among 320,000; cell-free LANA-H2A/H2B peptide, fluorescence polarization; inhibition, % (no concentration beside the values); in the data active means inhibition mostly above about 10%, no sharp cut-off; inactive means mostly below about 6.7%;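 further: stock transfer was 7.5 nL into about 10 µL; 0% = median of vehicle wells and 100% = median of positive control wells; one replicate is shown; the record names a cut of 25% in any replicate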
Beta apoptosis: blocks beta cell apoptosis; protection from apoptosis, % (concentration not given with the values); INS-1E cytokine-induced death, ATP luminescence, 48 h; percent of positive-control rescue, neutral wells zero; AID 435005; hit rate 0.8% among 300,000;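 active means all replicates at 75% or more, or half of them and the mean; inconclusive means half reach 75% but not the mean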;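 further: 0% = cytokine-treated negative control wells and 100% = positive control rescue; higher means more ATP so stronger rescue from cytokine killing; wells of about 40 µL received 100 nL stock; the first replicate is given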
ALR H2O2 inh: inhibitors of human sulfhydryl oxidase ALR; P55789; purified ALR, DTT oxidation, H2O2 HRP-luminol luminescence; inhibition, % (no concentration beside the values); hit rate 3.8% among 290,000; AID 485317;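 active means mean and each replicate at 75% or more; inconclusive means only one of the two met; inactive means neither met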;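 further: stock transfer was 7.5 nL into about 7.5 µL; 0% = neutral wells and 100% = wells with inactivated enzyme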
Target sequence (P55789 whole entry, looked up): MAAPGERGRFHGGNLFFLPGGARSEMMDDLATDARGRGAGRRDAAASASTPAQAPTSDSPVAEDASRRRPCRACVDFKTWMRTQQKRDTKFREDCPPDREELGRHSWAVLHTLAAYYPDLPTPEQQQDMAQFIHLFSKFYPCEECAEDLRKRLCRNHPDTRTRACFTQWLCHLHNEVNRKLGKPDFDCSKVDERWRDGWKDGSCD
rRNA inh HTS: inhibits bacterial ribosomal RNA function over humanized ribosomes; E. coli WT GFP vs humanized-ribosome RFP mutants, fluorescence, 24 h; active compounds read low; DMSO median 0, no signal -100; GFP signal change (wild-type ribosome), % (no concentration beside the values); hit rate 1.6% among 350,000; AID 720706;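 active means significant combined selectivity score with lowered wild-type GFP, culture density cut under 30%, mutant RFP and density less affected; inactive means any of these conditions unmet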; further: one replicate is shown; some compounds called inactive have numbers as strong as hits
rRNA inh HTS OD600: also measured in rRNA inh HTS; calls as there; OD600 change, %; measured here: OD600 growth;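 optical density of the mix in the first replicate; 0 = DMSO median and -100 = no signal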
rRNA inh HTS RFP: second read-out of rRNA inh HTS, no call of its own (marks repeat the call); RFP signal change, %; measured here: RFP humanized mutant strains;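 first replicate; 0 = DMSO median and -100 = no signal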
Active calls of the source: *; ? = inconclusive; · = not tested or not shown. These rows are one share of the data. The share of hits here may be higher or lower than overall.

mol,Beta apoptosis,rRNA inh HTS OD600,rRNA inh HTS,Bfl-1 A1 inh,Calb FLC,Beta2AR agonist,LANA-H2A inh,rRNA inh HTS RFP,ALR H2O2 inh,T cruzi inh
O=C(CCn1cnc2ccccc2c1=O)Nc1ccc(S(=O)(=O)N2CCCCC2)cc1,7,·,·,0.7,-4,-10,1.0,·,-4,5
COc1ccc(C(=S)N2CCC(C(N)=O)CC2)cc1Br,·,6,6,-1.2,-17,0,2.2,0.2,-12,0
O=c1[nH]c(CSc2ncn[nH]2)nc2ccccc12,1,15,16,0.1,9,-6,-3.6,9.9,-2,-12
COc1ccccc1N1CCN(/N=C/c2c(C)nn(-c3ccccc3)c2C)CC1,-1,·,·,-0.1,-25,-2,2.6,·,25,-8
COc1ccc(OC)c(C2=Nn3c(nnc3-c3ccncc3)SC2)c1,4,-4,3,-0.7,?,-2,0.5,-2.3,-17,17
O=C(Nc1nc(-c2ccc(Br)cc2)cs1)c1cccnc1,-2,6,9,0.0,12,3,1.9,-2.6,·,17
COc1ccccc1OCC(=O)Nc1ccc(S(=O)(=O)N2CCCC2)cc1,·,-9,-11,-0.6,-18,-4,-5.6,-1.1,8,3
Cc1nc2ccccc2cc1C(=O)O,·,·,·,-1.1,-12,3,-1.9,·,7,-24
COCCn1c(Cc2ccccc2)nnc1SCC(=O)N(C)C,-5,0,12,-0.2,-4,-2,4.4,-6.7,0,-26
CC1CCC(C(C)C)C(OC(=O)C2=C3c4ccccc4S(=O)(=O)N3CC2)C1 (configuration not stated),2,·,·,0.7,0,21,2.3,·,3,-10
CCOC(=O)C(CCCOc1ccccc1C)C(=O)OCC,4,·,·,-0.4,·,2,-3.3,·,·,·
CCCn1c(C)cc(/C=C(\C#N)C(=O)OCC(=O)N(C)c2c(N)n(Cc3ccccc3)c(=O)[nH]c2=O)c1C,-3,-15,-12,-0.7,-1,9,3.0,1.0,-11,-7
Cc1cc2ncc(C(=O)Nc3ccccc3)c(C)n2n1,0,·,·,0.2,-5,-8,5.6,·,-10,-7
Cc1nn2c(NCc3ccccn3)cc(C(C)C)nc2c1-c1ccccc1,61,-11*,-21*,-0.3,5,-5,-3.0,0.4*,-7,54
COc1ccc(S(=O)(=O)N2CCCN(CC(=O)Nc3ccccc3F)CC2)cc1,-6,-17,-11,-0.3,7,2,-4.9,3.6,-1,0
COc1ccc(N(Cc2cc3ccccc3[nH]c2=O)S(C)(=O)=O)cc1,1,·,·,0.8,17,-15,-0.4,·,-4,-8
C/C(=N/NC(=O)Cc1c(C)[nH][nH]c1=O)c1ccc(O)cc1,6,-3,9,-1.1,-2,12,-1.7,-0.3,98*,0
CCOC(=O)c1ccc(NC(=O)CN2C(=O)CCC2=O)cc1,-2,·,·,0.1,1,4,0.0,·,·,·
Cc1nn(Cc2ccc(Cl)cc2)c2sc(C(=O)O)cc12,2,-21,-21,1.5,3,1,-2.9,-1.5,-1,9
CCC1CCCCN1CCCNC(=O)C1CCN(c2nnc(-n3cccc3)s2)CC1 (configuration not stated),-10,11,9,0.9,0,-12,-8.3,7.6,-6,8
CCOC(=O)CN(C(=O)CSc1nnc(CNc2ccc(C)cc2C)o1)c1ccccc1,2,-16*,-23*,1.2,?,1,5.5,4.2*,96*,4
CCN(CC)S(=O)(=O)c1ccc(C(=O)Oc2ccc3c(c2)OCO3)cc1,4,·,·,1.9,-26,6,1.7,·,·,-6
O=C(O)c1ccccc1C(=O)NC1=NN(c2ccccc2)CC1,-8,12,11,?,1,-5,-0.2,-1.1,98*,-1
O=C(NC1CCCCCC1)c1nc2ncccn2n1,-5,·,·,-1.2,-1,-11,-2.1,·,-2,1
CC1=C(C(=O)Nc2ccccc2)C(c2ccc3c(c2)OCO3)C2=C(CCCC2=O)N1 (configuration not stated),-2,·,·,-0.2,5,-15,-3.8,·,-27,3
CCOCCCNc1ccc(N2C(=O)CCCC2=O)cc1[N+](=O)[O-],-5,4,5,-0.1,-25,-10,-6.3,-3.2,0,-1
N#Cc1cccc(NC(=O)CNc2cccc(S(=O)(=O)N3CCCC3)c2)c1,-4,-3,-9,-0.4,-5,-2,5.6,0.3,1,5
COc1ccc(CNC(=O)CSc2ccc(Br)cc2)cc1OC,2,·,·,0.3,4,3,-0.6,·,-5,-5
COc1cc2c(C(=O)N3CCN(c4ccccc4F)CC3)cn(C)c(=O)c2cc1OC,-15,8,11,0.5,6,-5,1.4,0.1,1,-5
CC(C)(C)OC(=O)[C@H](Cc1ccccc1)NC(=O)c1[nH]cnc1C(=O)N[C@@H](Cc1ccccc1)C(=O)OCc1ccccc1,-9,16,5,0.4,-9,2,3.1,-7.4,·,0
COC(=O)C(C(=O)Nc1ccccc1C)C1CCCC1 (configuration not stated),-8,·,·,0.2,1,6,2.4,·,-3,-9
CC1CC(C)CN(C(=O)C2CCC(CNc3c(N4CCCCC4)c(=O)c3=O)CC2)C1 (configuration not stated),-3,6,1,-0.4,0,2,6.5,8.7,-2,-4
Cc1ccc(C)n1-c1cccc(NC(=O)c2ccccc2)c1,1,·,·,-1.8,0,25,-1.1,·,·,-12
CCCCN(C(C)=O)C1CC(=O)N(c2ccc(OCCC)cc2)C1=O (configuration not stated),4,3,-3,0.4,1,-4,-0.6,2.4,-6,6
CCOC(=O)COc1ccc2ccccc2c1/C=C/[N+](=O)[O-],106*,·,·,1.6,66,44*,-0.6,·,·,11
O=C(COC(=O)c1oc2ccccc2c1COc1ccccc1)NCCN1C(=O)CSC1=O,·,-11,-4,0.1,4,-13,-4.7,3.5,3,-6
Cc1ccc(CNS(=O)(=O)c2ccc3c(c2)C(C)(C)C(=O)N3C)cc1,-2,-9,-5,0.5,16,2,0.4,2.0,-29,12
CC(=O)Nc1ccc(-c2nnc(SCC(=O)NCc3ccco3)n2C)cc1,-5,·,·,0.7,-2,-5,-1.8,·,-7,5
CC(C)NC(=O)c1cc(-c2ccco2)on1,-8,11,11,-1.3,-20,-1,-2.8,-6.7,-6,-6
CC1(C)Cc2c(C#N)c(SCCC#N)nc(N3CCOCC3)c2CO1,-5,14,14,0.2,-10,-10,-2.3,3.3,-5,15
CSc1ccccc1C(=O)NC1CCSc2ccccc21 (configuration not stated),0,17,2,0.5,-7,2,0.7,2.9,-4,24
Cc1ccc(C)c(N2CCN(S(=O)(=O)c3ccc4c(c3)OCCO4)CC2)c1,-9,·,·,1.0,14,3,2.5,·,-17,14
CN(C)S(=O)(=O)c1ccc(Cl)c(NC(=O)C2CCN(S(=O)(=O)c3cccs3)CC2)c1,-7,13,3,-0.2,·,1,-3.5,-0.3,-3,·
CCOC(=O)C1=NOC2C3CC(C12)C1C(=O)N(CCc2ccc(OC)c(OC)c2)C(=O)C31 (configuration not stated),-3,-3,3,0.3,3,4,3.5,-3.3,-7,6
O=C(O)c1ccccc1N=Nc1ccc(O)cc1,·,·,·,-3.2,6,-1,-1.2,·,99*,-21
O=C(Cn1cc(SCc2ccc(F)cc2)c2ccccc21)N1CCOCC1,1,-27,-19,-1.8,-11,-2,1.5,-16,52,8
CC(C)CC(=O)NC(=S)Nc1ccc(N2CCN(C(=O)c3cccs3)CC2)cc1,40,-9,-18,0.2,1,-5,3.3,3.0,1,-6
COc1ccc(C(=O)Nc2ccc(NC(=O)c3ccccc3)cc2)cc1S(=O)(=O)N1CCOCC1,6,8,6,1.6,2,-7,0.9,-3.4,-8,-2
CN(C)Cc1nc2c(c(=O)[nH]1)C(C)(C)Cc1ccccc1-2,-3,·,·,-0.5,-13,34,2.2,·,-16,2
Cc1cc(=O)oc2c3c(cc(OCC(=O)NCc4ccccn4)c12)OC(C)(C)CC3,4,·,·,0.2,1,-3,-3.4,·,·,?
O=C(Nc1cc(C(F)(F)F)ccc1N1CCOCC1)c1c(F)c(F)c(F)c(F)c1F,2,·,·,2.3,-3,4,-7.5,·,-6,0
COc1c2ccc(C(=O)NCCCCc3ccccc3)cc2nn1C,7,-7,1,-0.1,-2,5,-3.4,-3.2,6,-28
COc1cc(/C=C2\SC(=S)N(N3CCOCC3)C2=O)ccc1O,5,4,8,-0.4,2,11,-1.0,10.0,5,-11
O=C(Nc1ccccc1C(=O)N1CCOCC1)c1cc2ccccc2o1,-2,3,5,0.6,-13,0,-4.4,-1.1,-4,-12
CC1(C)CC(=O)CC(=Nc2ccc3[nH]c(=O)[nH]c3c2)C1,-6,·,·,-0.1,3,2,-3.8,·,37,-23
O=C(CCc1ccccc1)N=C1SC2CS(=O)(=O)CC2N1Cc1ccccc1 (configuration not stated),16,4,12,-0.3,-3,3,-0.6,0.2,7,3
CCn1cc(/C=C(\NC(=O)c2ccc(OC)cc2)C(=O)N2CCN(C)CC2)c2ccccc21,·,-1,-4,·,16,1,·,-1.7,·,-1
O=C(Nc1cc(Cl)ccc1N1CCOCC1)c1cc2ccccc2o1,4,12,0,0.5,-23,5,-6.8,-1.7,-2,31
COc1cccc(NC(=O)CNC(=O)c2ccc(OC)c(OC)c2)c1,-6,-3,-1,0.4,-26,-7,-2.5,3.7,3,-1
COc1ccccc1Nc1cc(C(=O)N2CCc3ccccc3C2)c2ccccc2n1,-1,·,·,1.3,?,·,-0.1,·,-15,36

The results go on:
mol,Beta apoptosis,rRNA inh HTS OD600,rRNA inh HTS,Bfl-1 A1 inh,Calb FLC,Beta2AR agonist,LANA-H2A inh,rRNA inh HTS RFP,ALR H2O2 inh,T cruzi inh
COc1ccc(C2=NS(=O)(=O)N(C)C(C(=O)N3CCOCC3)=C2)cc1OC,-9,7,-1,0.9,-2,-3,2.3,-2.6,-12,-3
COCCn1c(C)c(C)c2c(NCCc3ccccc3)ncnc21,8,0,2,-4.9,-3,3,-3.3,14,43,4
CC(C)Cc1nnc(NS(=O)(=O)Cc2ccccc2)s1,-2,·,·,0.1,-3,8,-4.8,·,-2,1
CCc1ccccc1NC(=O)CCC(=O)N1CCSc2ccccc21,-1,-1,2,1.1,-11,-1,-0.5,-2.5,-5,6
CCCCn1c(N)c(N(CC(C)C)C(=O)c2ccc(N(C)S(=O)(=O)c3ccc(C)cc3)cc2)c(=O)[nH]c1=O,·,5,8,0.1,3,-7,1.5,0.0,·,11
O=C(CSc1nnc2scc(-c3ccc(Cl)cc3)n12)NCc1ccco1,3,-3,-2,0.4,-22,0,1.9,-3.4,-16,-3
CC(C)CC(=O)N1CC(=O)Nc2ccc(F)cc2C1c1ccccc1 (configuration not stated),-2,11,14,0.2,-6,-11,2.6,-0.5,-3,0
CCOC(=O)C1CCN(c2cc(C)nc3ccc(OC)cc23)CC1,2,-8,0,-1.1,-18,9,-1.4,-4.9,1,-9
CCOC(=O)COc1cccc2c(=O)n(CC(=O)NCCc3ccccc3)ccc12,1,·,·,0.3,1,44*,-5.4,·,48,0
